Screening data: PubChem BioAssay, Broad Institute
Vaccinia stage: blocks a specific stage of Vaccinia orthopoxvirus infection, primary screen, cell-based, single point | 89,000 compounds, 0.01% hits | AID 1053133, 2014 | Vaccinia-infected cells, mCherry/Venus stage reporter fluorescence; active compounds read low; some inactives read as strong as hits | activity change (mCherry), % (concentration not given with the values);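 active = mCherry past -33% and 40 or more points under the early reporter, replicates agreeing; inconclusive = past -33% without that gap or agreement; tested in A549 cells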;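 also: scaled between vehicle wells and reference inhibitor wells; 23 nL library stock went into each well; one replicate is shown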
Vaccinia stage Venus: recorded beside Vaccinia stage, whose call it bears; activity change (Venus), %; measured here: Venus reporter, other viral stage;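 negative = less Venus signal; first of two replicates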
Numbers without * were called inactive; ? = inconclusive; / = no result given. These rows are one share of the data. The share of hits here may be higher or lower than overall.

SMILES	Vaccinia stage	Vaccinia stage Venus
COCCNC(=O)C[C@@H]1C[C@H]2c3cc(NC(=O)c4cccnc4)ccc3O[C@H]2[C@H](CO)O1	11.8	10.2
COCC(=O)Nc1ccc2c(c1)C(=O)N(C)[C@H]1CC[C@@H](CC(=O)NCc3ccccc3)O[C@@H]1CO2	5.5	12.3
CC=Cc1ccc2n(c1=O)C[C@@H]1[C@@H](CO)[C@H](C(=O)N3CCC(Cc4ccccc4)CC3)N(CCC)[C@H]21 (mixture of isomers)	?	/
CCCNC(=O)N1CC2(CN(S(=O)(=O)CC)C2)c2c(n(C)c3cc(OC)ccc23)[C@H]1CO	5.6	-1.3
C[C@H](CO)N1C[C@H](C)[C@H](CN(C)S(=O)(=O)c2ccccc2)Oc2ncc(-c3ccccc3)cc2C1=O	9.6	0.6
COCC(=O)N(C)C[C@H]1Oc2cc(C#CCC(C)C)ccc2S(=O)(=O)N([C@H](C)CO)C[C@@H]1C	0.1	-6.3
COc1ccccc1NC(=O)N[C@H]1CC[C@@H](CC(=O)N[C@H](C)c2ccccc2)O[C@H]1CO	-8.0	-5.2
CO[C@@H]1CN(C)C(=O)c2ccc(NS(=O)(=O)c3cccc(F)c3)cc2OC[C@H](C)N(Cc2cc(F)ccc2F)C[C@H]1C	-31.8	-26.4
C[C@H](CO)N1C[C@H](C)[C@@H](CN(C)S(=O)(=O)c2cccs2)OCCCC[C@H](C)Oc2ccc(NS(=O)(=O)c3cccs3)cc2C1=O	-29.7	-19.8
O=C(C[C@H]1CC[C@H](NC(=O)CN2CCOCC2)[C@H](CO)O1)NCCc1ccccc1	-7.8	-4.7
C[C@@H]1CN([C@@H](C)CO)C(=O)c2cc(NS(=O)(=O)c3ccc(F)cc3)ccc2O[C@@H]1CN(C)S(=O)(=O)c1ccc(F)cc1	5.3	5.8
CN(C)C(=O)[C@H]1[C@H](CO)[C@H]2Cn3c(ccc(C4=CCCC4)c3=O)[C@@H]1N2C	31.5	16.1
CN1CCCCN2[C@H](CO)[C@H](c3ccc(C#Cc4ccccc4F)cc3)[C@@H]2C1	?	/
N#C[C@H]1[C@@H](c2ccc(C3=CCCCC3)cc2)[C@@H](CO)N1S(=O)(=O)c1ccccc1	-17.7	-9.7
Cc1ccc(S(=O)(=O)N[C@@H]2CC[C@H](CCn3cc(-c4cccc(F)c4)nn3)O[C@H]2CO)cc1	-23.4	-23.6
CO[C@H]1CN(C)C(=O)c2ccc(NC(=O)NC(C)C)cc2OC[C@H](C)N(CCC(F)(F)F)C[C@@H]1C	-3.5	6.9
CCOC(=O)N(C)C[C@@H]1OCc2cn(nn2)CCCC(=O)N([C@H](C)CO)C[C@H]1C	14.3	11.9
COCC(=O)Nc1ccc2c(c1)[C@H]1C[C@@H](CC(=O)NC3CCCCC3)O[C@@H](CO)[C@H]1O2	10.5	10.8
Cc1cccc(S(=O)(=O)N2C[C@H](O)COC[C@H]3O[C@@H](CC(=O)N4CCN(C)CC4)CC[C@@H]32)c1	9.3	17.3
Cc1ccc(S(=O)(=O)Nc2ccc3c(c2)C(=O)N([C@@H](C)CO)C[C@H](C)[C@H](CN(C)C(=O)Nc2ccccc2)O3)cc1	7.5	4.2

17 neighbouring entries from above, for reference:
SMILES	Vaccinia stage	Vaccinia stage Venus
CCCNC(=O)N1CC2(CN(S(=O)(=O)CC)C2)c2c(n(C)c3cc(OC)ccc23)[C@H]1CO	5.6	-1.3
C[C@H](CO)N1C[C@H](C)[C@H](CN(C)S(=O)(=O)c2ccccc2)Oc2ncc(-c3ccccc3)cc2C1=O	9.6	0.6
COCC(=O)N(C)C[C@H]1Oc2cc(C#CCC(C)C)ccc2S(=O)(=O)N([C@H](C)CO)C[C@@H]1C	0.1	-6.3
COc1ccccc1NC(=O)N[C@H]1CC[C@@H](CC(=O)N[C@H](C)c2ccccc2)O[C@H]1CO	-8.0	-5.2
CO[C@@H]1CN(C)C(=O)c2ccc(NS(=O)(=O)c3cccc(F)c3)cc2OC[C@H](C)N(Cc2cc(F)ccc2F)C[C@H]1C	-31.8	-26.4
C[C@H](CO)N1C[C@H](C)[C@@H](CN(C)S(=O)(=O)c2cccs2)OCCCC[C@H](C)Oc2ccc(NS(=O)(=O)c3cccs3)cc2C1=O	-29.7	-19.8
O=C(C[C@H]1CC[C@H](NC(=O)CN2CCOCC2)[C@H](CO)O1)NCCc1ccccc1	-7.8	-4.7
C[C@@H]1CN([C@@H](C)CO)C(=O)c2cc(NS(=O)(=O)c3ccc(F)cc3)ccc2O[C@@H]1CN(C)S(=O)(=O)c1ccc(F)cc1	5.3	5.8
CN(C)C(=O)[C@H]1[C@H](CO)[C@H]2Cn3c(ccc(C4=CCCC4)c3=O)[C@@H]1N2C	31.5	16.1
CN1CCCCN2[C@H](CO)[C@H](c3ccc(C#Cc4ccccc4F)cc3)[C@@H]2C1	?	/
N#C[C@H]1[C@@H](c2ccc(C3=CCCCC3)cc2)[C@@H](CO)N1S(=O)(=O)c1ccccc1	-17.7	-9.7
Cc1ccc(S(=O)(=O)N[C@@H]2CC[C@H](CCn3cc(-c4cccc(F)c4)nn3)O[C@H]2CO)cc1	-23.4	-23.6
CO[C@H]1CN(C)C(=O)c2ccc(NC(=O)NC(C)C)cc2OC[C@H](C)N(CCC(F)(F)F)C[C@@H]1C	-3.5	6.9
CCOC(=O)N(C)C[C@@H]1OCc2cn(nn2)CCCC(=O)N([C@H](C)CO)C[C@H]1C	14.3	11.9
COCC(=O)Nc1ccc2c(c1)[C@H]1C[C@@H](CC(=O)NC3CCCCC3)O[C@@H](CO)[C@H]1O2	10.5	10.8
Cc1cccc(S(=O)(=O)N2C[C@H](O)COC[C@H]3O[C@@H](CC(=O)N4CCN(C)CC4)CC[C@@H]32)c1	9.3	17.3
Cc1ccc(S(=O)(=O)Nc2ccc3c(c2)C(=O)N([C@@H](C)CO)C[C@H](C)[C@H](CN(C)C(=O)Nc2ccccc2)O3)cc1	7.5	4.2

(further entries)
SMILES	Vaccinia stage	Vaccinia stage Venus
Cc1ccc(S(=O)(=O)Nc2ccc3c(c2)C(=O)N([C@H](C)CO)C[C@@H](C)[C@H](CN(C)CC2CCCCC2)OCCCC[C@@H](C)O3)cc1	?	/
C[C@H]1CN([C@@H](C)CO)C(=O)c2cc(NC(=O)c3ccncc3)ccc2O[C@H]1CN(C)Cc1ccc(C(F)(F)F)cc1	-2.3	8.5
Cc1ccc(CN2CC(=O)N3[C@H](CO)[C@@H](c4ccc(-c5cccnc5)cc4)[C@H]3C2)cc1	14.9	13.7
C[C@H]1CCCCO[C@H](CN(C)Cc2ccc3c(c2)OCO3)[C@@H](C)CN([C@@H](C)CO)C(=O)c2cc(NC(=O)c3ccncc3)ccc2O1	-9.8	-6.2
O=C(Nc1ccc2c(c1)[C@@H]1C[C@@H](CC(=O)N3CCOCC3)O[C@@H](CO)[C@@H]1O2)NC1CCCC1	19.3	6.6
C[C@H]1CN([C@@H](C)CO)C(=O)Cc2cc(NC(=O)Nc3cccc4ccccc34)ccc2O[C@H]1CN(C)Cc1ccc(C(=O)O)cc1	6.6	4.2
O=C(C[C@H]1CC[C@@H]2[C@H](COC[C@@H](O)CN2C(=O)Nc2ccccc2)O1)NCCCN1CCOCC1	-3.9	-1.4
O=C(Cc1cccnc1)N1CC(=O)N2[C@@H](CO)[C@H](c3ccc(C4=CCCC4)cc3)[C@@H]2C1	2.5	7.2
C/C=C/c1cccc(-c2nc(C(=O)N(C)C)cc3c2[C@@H](CCO)N([S@](=O)C(C)(C)C)C3)c1	13.9	27.7
O=C(C1CCCC1)N1CC(=O)N2[C@H](CO)[C@@H](c3ccc(-c4cccnc4)cc3)[C@H]2C1	-10.1	-10.6
C[C@H](CO)N1C[C@H](C)[C@H](CN(C)CC2CC2)Oc2cc(-c3cncnc3)ccc2S1(=O)=O	29.3	17.8
C[C@@H]1CN([C@@H](C)CO)C(=O)c2cccc(NC(=O)C3CC3)c2O[C@H]1CN(C)C(=O)Nc1ccccc1	11.4	8.9
CNC(=O)C[C@@H]1CC[C@@H]2[C@H](COC[C@@H](O)CN2Cc2ccncc2)O1	0.4	-1.4
CO[C@@H]1CN(C)C(=O)c2ccc(NC(=O)C3CC3)cc2OC[C@H](C)N(C(=O)c2cccnc2)C[C@H]1C	12.4	13.4
Cc1noc(C)c1NC(=O)N(C)C[C@@H]1Oc2c(NS(=O)(=O)c3ccccc3)cccc2C(=O)N([C@@H](C)CO)C[C@H]1C	16.7	15.3
CC(C)CC#Cc1ccc2c(c1)O[C@H](CN(C)C(=O)c1cccc(F)c1)[C@@H](C)CN([C@@H](C)CO)S2(=O)=O	?	/
Cc1noc(C)c1NC(=O)Nc1ccc2c(c1)C(=O)N([C@@H](C)CO)C[C@H](C)[C@@H](CN(C)Cc1ccccc1)O2	10.7	8.0
O=C(C[C@H]1CC[C@@H](NC(=O)CCN2CCCCC2)[C@@H](CO)O1)NCc1ccc(Cl)c(Cl)c1	-4.9	-4.7
O=C(CCN1CCCCC1)N[C@@H]1CC[C@H](CCNS(=O)(=O)c2ccc(F)cc2)O[C@@H]1CO	6.3	-4.2
O=C(c1ccccc1)N1CC(=O)N2[C@H](C1)[C@H](c1ccc(C#Cc3ccccc3)cc1)[C@@H]2CO	?	/
C[C@@H]1CN([C@H](C)CO)C(=O)Cc2cc(NC(=O)Nc3ccc4c(c3)OCO4)ccc2O[C@@H]1CN(C)S(=O)(=O)c1ccc(Cl)cc1	-23.3	-17.7
CO[C@H]1CN(C)C(=O)c2cc(NC(=O)Cc3ccccc3)ccc2OC[C@@H](C)N(C)C[C@@H]1C	-12.3	-2.3
C[C@@H]1CN([C@H](C)CO)C(=O)c2cc(NC(=O)Cc3ccccc3)ccc2O[C@@H](C)CCCCO[C@@H]1CN(C)C(=O)c1ccccc1	22.3	3.9
COc1cccc(CN2[C@H](CO)[C@H](c3ccccc3)C23CN(C(=O)C2CCOCC2)C3)c1	10.9	12.5
CO[C@H]1CN(C)C(=O)c2cc(NS(=O)(=O)CC(F)(F)F)ccc2OC[C@H](C)N(Cc2ccccn2)C[C@@H]1C	1.7	5.9
COc1cccc(-c2ccc3c(c2)O[C@@H](CN(C)Cc2ccncc2)[C@@H](C)CN([C@@H](C)CO)S3(=O)=O)c1	-34.1	-24.3
COc1ccc(NC(=O)N(C)C[C@H]2Oc3c(NC(=O)c4ccc(-c5nccs5)cc4)cccc3C(=O)N([C@H](C)CO)C[C@@H]2C)cc1	11.2	9.3
CC(C)NC(=O)N(C)C[C@@H]1OCCCC[C@@H](C)Oc2ccc(N(C)C)cc2C(=O)N([C@H](C)CO)C[C@@H]1C	9.2	13.4
CCCC#Cc1ccc(CC[C@H]2O[C@H]3CC[C@@H](CO)O[C@H]3C[C@@H]2n2cc(C(C)(C)O)nn2)cc1	-11.4	-10.8
CCCc1cn(CC[C@@H]2CC[C@@H](NC(=O)C3CC3)[C@H](CO)O2)nn1	6.4	1.3
Cc1ccc(S(=O)(=O)N(C)C[C@@H]2Oc3ccc(NC(=O)Nc4ccc(C(F)(F)F)cc4)cc3C(=O)N([C@H](C)CO)C[C@H]2C)cc1	-34.7	-24.4
Cc1cccc(CN(C)C[C@@H]2Oc3ncc(C#Cc4ccccc4)cc3C(=O)N([C@H](C)CO)C[C@@H]2C)c1	?	/
C[C@H]1CN([C@@H](C)CO)C(=O)c2cc(NC(=O)Nc3ccc(F)cc3)ccc2O[C@H]1CN(C)Cc1ccc(-c2ccccc2)cc1	?	/
CCCNC(=O)N1C[C@@H]2[C@H](c3ccccc31)[C@@H](CO)N2C(=O)Nc1ccccc1	14.9	10.1
C[C@@H]1CN([C@@H](C)CO)C(=O)c2cccc(NC(=O)c3nc4ccccc4s3)c2O[C@H]1CN(C)CC1CCCCC1	?	/
CCNC(=O)C[C@H]1CC[C@H]2[C@@H](COC[C@@H](O)CN2C(=O)c2cc(Cl)cc(Cl)c2)O1	3.9	-7.9
CCC(=O)N1CCCCN2[C@H](C1)[C@@H](c1ccc(-c3cccc(C(=O)N(C)C)c3)cc1)[C@@H]2CO	29.8	6.1
C[C@@H]1CN([C@H](C)CO)C(=O)c2cc(NC(=O)Nc3cccc4ccccc34)ccc2O[C@H]1CN(C)Cc1ccc(C(F)(F)F)cc1	-27.5	-17.0
C/C=C/c1ccc2c(c1)O[C@@H](CN(C)C(=O)Nc1cc(F)ccc1F)[C@H](C)CN([C@H](C)CO)S2(=O)=O	-27.8	-14.2
Cc1ccc(S(=O)(=O)N(C)C[C@H]2Oc3c(NC(=O)c4ccc(-c5nccs5)cc4)cccc3C(=O)N([C@@H](C)CO)C[C@@H]2C)cc1	1.6	2.5
CS(=O)(=O)N1CCCCN2[C@H](CO)[C@@H](c3ccc(Br)cc3)[C@H]2C1	10.6	-5.1
CCC(=O)N1CC(=O)N2[C@H](CO)[C@@H](c3ccc(C#Cc4cccc(F)c4)cc3)[C@H]2C1	-3.5	-11.4
Cc1noc(C)c1S(=O)(=O)N(C)C[C@H]1OCc2ccccc2-c2c(n(C)c3ccccc23)C(=O)N([C@@H](C)CO)C[C@@H]1C	?	/
COC(=O)C[C@H]1CC[C@@H]2[C@H](COc3ccc(NC(=O)Nc4cccc(F)c4)cc3C(=O)N2C)O1	-6.4	1.8
